# Cruzain noTriton – cruzain (T. cruzi) inhibition without detergent. AID 1476. P25779. Potency, µM, without a hit: max response, negative = inhibition, actives largely listed as inhibitors. 2.3% of 200,000 active. purified cruzain, Z-FR-AMC fluorescence, no detergent;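 further: plate controls were enzyme without inhibitor for no effect and buffer without enzyme for full effect; nearly all actives have a fitted effect of over 40% in size; top concentration of the series not given in the record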
# Target sequence (P25779 123-467 limits assumed): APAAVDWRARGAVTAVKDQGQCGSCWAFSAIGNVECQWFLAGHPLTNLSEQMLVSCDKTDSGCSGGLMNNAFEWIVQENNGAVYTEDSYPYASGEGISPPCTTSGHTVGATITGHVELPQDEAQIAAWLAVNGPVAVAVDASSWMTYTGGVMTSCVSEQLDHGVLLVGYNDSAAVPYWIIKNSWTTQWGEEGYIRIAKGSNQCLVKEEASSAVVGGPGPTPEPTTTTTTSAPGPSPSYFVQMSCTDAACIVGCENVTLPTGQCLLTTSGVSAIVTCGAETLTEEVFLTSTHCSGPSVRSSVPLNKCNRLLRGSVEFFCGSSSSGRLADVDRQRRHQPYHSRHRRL
#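 Purified cruzain at 1.5 nM, pre-incubated 15 min with compound at room temperature in 100 mM sodium acetate pH 5.5, 5 mM DTT, 0.00005% Triton X-100. Reaction started with 2 uM Z-FR-AMC; AMC fluorescence increase over 60 s gives rate.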
# LASV entry inh – inhibitors of Lassa virus binding or cell entry; Lassa virus pseudotype entry inhibition, cell reporter; control for the full effect not named in the record; 1.2% of 300,000 active; Potency, µM (highest dose often 37.9 µM), for the others: at the top dose activity change, negative = inhibition, usual class: inhibitors; active means well fitted inhibition curve with a large enough effect; inconclusive means small, poorly fitted or top-dose-only effect, or effect the other way; inactive means flat fitted curve, though single readings scatter; tested in HEK293 cells; further: on the % scale 0 is the no-effect control and ±100 the full control effect; nearly all actives have a fitted effect of over 50% in size; luciferase read-out
# MARV entry inh – inhibitors of Marburg virus binding or cell entry. AID 540276. 1.8% of 300,000 active. Marburg virus pseudotyped entry inhibition, cell reporter; control for the full effect not named in the record; about a third of the inactives were read at about 46 µM. Potency, µM (top dose mostly 37.8 µM), for the others: at the highest dose activity change, negative = inhibition, most hits filed as inhibitors; active = well fitted inhibition curve with a large enough effect; inconclusive = small, poorly fitted or top-dose-only effect, or effect the other way; inactive = flat fitted curve, though single readings scatter; tested in HEK293 cells; about a fifth of its hits are not listed in these tables; further: on the % scale 0 is the no-effect control and ±100 the full control effect; luciferase read-out
# SARS PLpro yeast – blocks SARS-CoV papain-like protease in a yeast assay; S. cerevisiae expressing SARS-CoV PLpro, growth rescue; control for the full effect not named in the record; Potency, µM (doses to about 32.9 µM), without a hit: at the highest dose activity, positive = growth rescue; 0.19% of 330,000 active; AID 485353; active means well fitted rising curve with a large enough effect; inconclusive means small, poorly fitted or top-dose-only effect; inactive means no such curve, though single readings can be large or run the other way; further: 0% is about no effect; nearly all actives have a fitted effect of over 55% in size; growth read by luminescence after 48 h
# StopGo reporter – FMDV 2A StopGo reporter, luciferase signal | human cells with a luciferase reporter of 2A StopGo recoding; control for the full effect not named in the record | Potency, µM (doses to about 57.9 µM), without a hit: top-dose signal change, negative = less light | 1.2% of 410,000 active; active = well fitted falling curve with a large enough effect; inconclusive = small, poorly fitted or top-dose-only effect; inactive = no such curve, though single readings can be large or run the other way; tested in HEK293T cells; further: on the % scale 0 is the no-effect control and ±100 the full control effect; nearly all actives have a fitted effect of over 45% in size; luciferase light after 4 h
# NS1 function inh – inhibitors of influenza NS1 protein function; S. cerevisiae slowed by influenza A NS1, growth recovery by OD600; Potency, µM (highest dose often 46.1 µM), inactives show top-dose activity, positive = more growth; 0.4% of 270,000 active; active means well fitted rising curve with a large enough effect; inconclusive means small, poorly fitted or top-dose-only effect; inactive means no such curve, though single readings can be large or run the other way; further: nearly all actives have a fitted effect of over 50% in size
#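 Recovery from NS1-induced slow growth read by OD600 in budding yeast switched to galactose assay medium (pH 6.0, -URA) at 1:100 dilution. Compound 23 nl per well; the matching strain lacking NS1 serves as control.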
# Cruzain Triton – inhibitors of Trypanosoma cruzi cruzain with detergent; Potency, µM, without a hit: max response, negative = inhibition, usual class: inhibitors; 0.43% of 200,000 active; AID 1478; purified cruzain, Z-FR-AMC fluorescence, 0.01% Triton; P25779;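 further: plate controls were neutral wells for no effect and buffer without enzyme for full effect; nearly all actives have a fitted effect of over 40% in size; top concentration of the series not given in the record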
#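 Cysteine protease activity tested under reducing, mildly acidic conditions (100 mM sodium acetate pH 5.5, 5 mM DTT) plus 0.01% Triton X-100. Cruzain 1.5 nM; substrate Z-FR-AMC 2 uM; 15 min compound preincubation at room temperature.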
# RE007 growth inh – less growth of the S. pombe RE007 Vpr strain. S. pombe RE007 Vpr strain, BacTiter-Glo ATP luminescence, 24 h; control for the full effect not named in the record. Potency, µM (series often up to 92.2 µM), for the others: at the top dose activity change, negative = less growth. 0.21% of 360,000 active. AID 651644; active = well fitted falling curve with a large enough effect; inconclusive = small, poorly fitted or top-dose-only effect; inactive = no such curve, though single readings can be large or run the other way;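 further: on the % scale 0 is the no-effect control and ±100 the full control effect; nearly all actives have a fitted effect of over 50% in size; the assay follows cell death caused by Vpr and the record does not say whether a fall means rescue or toxicity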
#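 Fission yeast RE007 carrying one integrated HIV-1 vpr copy, seeded at OD 0.01 in PMG+AL medium with 23 nL pinned compound. Grown 24 h at 30 degrees; viability read by BacTiter-Glo luminescence after 5 min.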
# * marks the source's active call; other numbers are inactive results; u = inconclusive; x = not tested or not shown; & = joins results of further samples; [ ] = dose if it differs, or a comment. Unless noted, the call rests on the fitted dose curve; in most records, active means well fitted curve in the direction sought with a large enough effect; inconclusive means small, poorly fitted or top-dose-only effect, or another doubt; inactive means no such curve, though single readings can be large; an effect the other way counts as inactive or inconclusive. Potency means the concentration at half of the fitted maximal effect.
SMILES,Cruzain noTriton,LASV entry inh,MARV entry inh,SARS PLpro yeast,StopGo reporter,NS1 function inh,Cruzain Triton,RE007 growth inh
O=C(CN1C(=O)c2ccccc2S1(=O)=O)c1ccccc1,-15.8%,3.98µM*,u,0.6%,u,-0.4%,-3.9%,6.0%
CCCn1c(/N=C/c2ccccc2O)nc2ccccc21,-20.4%,6.9%,u,0.2%,-1.7%,-3.5%,-5.1%,-8.6%
Cc1ccc(NC(=O)CCCCCN2C(=O)c3ccccc3C2=O)nc1,-11.8%,8.6%,-4.4%[46.1 µM],26.3%,-15.2%,-4.5%,-3.6%,-7.1%
CC1CCN(c2c(NCc3ccc(C(=O)N4CCN(C5CCCCC5)CC4)cc3)c(=O)c2=O)CC1,1.1%,-6.2%,26.8%,-3.4%,u,-7.7%,-0.5%,0.2%
COc1ccc(CN(Cc2ccc(C(=O)O)cc2)C(=S)Nc2ccccc2C)cc1OC,x,0.2%,5.0%,0.4%,-8.2%,x,x,-6.0%
C=C1CCN([C@H](C(=O)OCc2ccc(C)cc2)C(C)C)S(=O)(=O)c2ccccc21,x,x,x,-6.8%,0.0%,3.6%,x,3.5%
Cn1c(SCC(=O)N2CCCc3ccccc32)nc2ccccc2c1=O,-6.1%,12.6µM*,12.6µM*,-22.9%,12.6µM*,-27.1%,-6.1%,12.7%
Cc1ccccc1-c1nn2c(=O)cc(CN3CCN(C(=O)c4ccc(C(C)(C)C)cc4)CC3)nc2s1,-6.5%,11.2%[46.1 µM],x,x,0.0%,x,1.1%,x
NCCCCCc1nnc(SCC(N)=O)o1,x,u,5.0%,-2.3%,0.1%,x,x,5.5%
COc1cc(/C=N/n2cnnc2)ccc1Oc1nc(Cl)ncc1F,x,1.7%,8.7%,6.2%,-11.7%,x,x,2.3%
COc1ccc(S(=O)(=O)N2CCOCC2)cc1NC(=O)C1CC1,x,-10.4%[46.1 µM],-8.2%[46.1 µM],6.6%,0.3%,x,x,9.4%
COc1cccc(/C=C/C(=O)OCCN2C(=O)c3ccccc3C2=O)c1,x,x,x,-1.1%,1.6%,-10.7%,x,-21.3%
CCOC(=O)CN(Cc1sccc1C)C(=O)Nc1ccc(OCC)cc1,-13.6%,22.7%,23.1%,9.4%,11.2%,-5.0%,-3.9%,-17.2%
N#Cc1ccc(C(=O)OCC(=O)Nc2ccc(S(N)(=O)=O)cc2)cc1,x,7.1%,1.5%,2.0%,-10.7%,6.5%,x,19.9%
C#CCSc1nnnn1-c1ccc(Br)c(C)c1,x,-9.2%[46.1 µM],3.6%[46.1 µM],5.6%,13.6%,-10.2%,x,6.3%
Cc1ccc(S(=O)(=O)Nc2ccc(-c3csc(-c4ccccc4)n3)cc2)cc1,u,u,-22.5%,-15.9%,-5.8%,1.1%,-2.4%,1.3%
O=C(NCCC1=CCCCC1)c1cnsn1,-3.6%,0.4%,-17.0%[46.1 µM],-0.2%,39.0%[activator],-1.9%,-0.6%,0.2%
COc1ccc(CCN2C(=NC(=O)C(C)C)SC3CS(=O)(=O)CC32)cc1OC (stereo not drawn),x,-9.6%,-10.3%,-0.4%,-13.6%,-1.9%,x,-2.4%
Cc1ccc(S(=O)(=O)NCCC(=O)Nc2nnc(C)s2)cc1,0.7%,-2.4%,-0.6%,x,0.0%,7.1%,3.3%,-13.0%
CC(C)CN(C(=O)COC(=O)CCc1c[nH]c2ccccc12)c1c(N)n(Cc2ccccc2)c(=O)[nH]c1=O,x,-1.5%,-1.8%[46.1 µM],-5.1%,-13.3%,x,x,-9.0%
CCc1ccc(C(=O)COC(=O)c2cncc(Br)c2)cc1,x,7.4%,28.2%[46.1 µM],0.5%,9.5%,x,x,0.2%
CCOc1ccccc1NC(=O)Cn1nnc(C(=O)NCc2ccc(F)cc2)c1N,u,28.6%[46.1 µM],u,x,-11.4%,x,0.0%,x
CCOC(=O)c1c(C)[nH]c(C(=O)OC/C(O)=C(\C#N)c2nc3ccccc3[nH]2)c1C,4.7%,-15.4%,-24.1%,1.9%,-5.7%,u,-3.2%,6.6%
CCCNC(=O)COCc1cc(-c2ccc(F)cc2)on1,1.8%,u,x,x,20.9%,x,0.8%,x
CCOc1cc(C2C(C(=O)OC)=C(C)NC3=C2C(=O)c2ccccc23)ccc1O (stereo not drawn),u,-15.3%[46.1 µM],-23.9%[46.1 µM],x,-24.5%,x,-9.6%,x
# (listing goes on)
SMILES,Cruzain noTriton,LASV entry inh,MARV entry inh,SARS PLpro yeast,StopGo reporter,NS1 function inh,Cruzain Triton,RE007 growth inh
CCCn1c(=N)c(C(=O)NC2CCCCC2)cc2c(=O)n3cc(C)ccc3nc21,11.3%,-6.8%[46.1 µM],-12.5%[46.1 µM],x,1.0%,x,-2.0%,x
COCCn1c(SCC(=O)Nc2ccc(NC(C)=O)cc2)nc2c([nH]c3ccccc32)c1=O,x,u,10.7%,0.7%,-5.8%,3.2%,x,15.7%
O=C(Nc1ccc(-c2nc3ccccc3[nH]2)cc1)C1CCCO1 (stereo not drawn),6.0%,u,u,-11.5%,x,0.0%,-3.3%,u
CCCCn1c(N)c(N(CCOC)C(=O)c2ccc(-c3ccc(C(C)=O)cc3)o2)c(=O)[nH]c1=O,x,-14.2%,u,-1.0%,47.7%[activator],x,x,0.3%
Cc1ccccc1NC(=O)CCS(=O)(=O)c1cc(Br)cc2c1N(C(=O)C1CC1)CC2,2.6%,-22.5%[46.1 µM],11.2%[46.1 µM],x,-8.1%,x,-1.1%,x
Cc1ccc2nc(-c3ccccn3)cc(C(=O)Nc3ccc4c(c3)OCO4)c2c1,x,-26.5%,1.2%[46.1 µM],0.4%,-13.0%,-3.2%,x,-6.6%
Cc1cc(NC(=O)CN2C(=O)/C(=C/c3ccccc3F)SC2=S)no1,x,x,-12.9%[46.1 µM],-2.5%,-7.9%,8.8%,x,-11.4%
CC(=O)Nc1ccc(NC(=O)C(Cc2ccccc2)NC(=O)C2CCCCC2)cc1 (stereo not drawn),-1.6%,-6.5%,0.8%,3.2%,-2.7%,9.9%,0.4%,11.5%
Cc1noc(NS(=O)(=O)c2ccc(NC(=O)c3cnc4n(c3=O)CCS4)cc2)c1C,-14.9%,0.8%,1.3%,-5.8%,-19.6%,-17.2%,-8.3%,-0.3%
CCCC(=O)N(c1ccc(F)cc1)C1C=CS(=O)(=O)C1 (stereo not drawn),-3.0%,12.9%,0.1%,-2.0%,18.4%,-3.4%,5.0%,-9.1%
Cc1ccccc1-c1nn(-c2ccc(F)cc2F)cc1CNCCCO,x,u,u,-1.4%,-9.1%,2.4%,x,-6.2%
O=C(NCCCN1CCCC1)c1ccc(CS(=O)(=O)c2c(Cl)cccc2Cl)o1,x,24.9%[46.1 µM],u,-1.7%,30.1%[activator],9.6%,x,5.3%
Cc1cc(-c2ccccc2)c2c3c(cn2n1)c(=O)n(C)c(=O)n3C,-16.5%,u,10.1%,-2.1%,u,-10.5%,-6.3%,u
CCOC(=O)c1sc(NC(=O)CSC(=S)N2CCOCC2)nc1C,x,u,u,0.1%,-0.2%,1.0%,x,-20.0%
Cc1cn(-c2cc(C(=O)Nc3ccc(C)c(NC(=O)N4CCNC4=O)c3)cc(C(F)(F)F)c2)cn1,x,x,x,-3.4%,-15.2%&3.6%,6.9%,x,9.1%&9.9%
CCOc1ccc(C(=O)NCC(c2cccs2)N(C)C)cc1 (stereo not drawn),-5.3%,16.1%,9.8%,u,10.2%,-8.5%,-0.1%,10.2%
O=C(NNC1=Nc2cccc3cccc1c23)c1ccccc1Br,-4.1%,-2.7%,u,-13.1%,-4.7%,1.1%,-2.5%,4.3%
Cc1cc(OC(=O)c2ccc(OC(C)C)cc2)c([N+](=O)[O-])c(=O)[nH]1,x,x,x,-0.2%,-13.6%,-24.7%,x,-2.1%
CC(=O)c1c(C)[nH]c(=S)c(C#N)c1-c1ccc(F)cc1,x,x,x,-0.2%,-7.9%,-5.1%,x,30.6%
C/C(=N\NC(=O)c1ccco1)c1ccc(C(=O)O)s1,x,x,x,1.1%,-19.4%,5.5%,x,-12.7%
CC1CCCN(CCCNC(=O)c2ccc3c(c2)N(Cc2cccc(Cl)c2)C(=O)c2ccccc2S3(=O)=O)C1 (stereo not drawn),-5.7%,u,x,x,10.8%,x,-1.2%,x
COc1cccc(C(=O)Nc2nnc(C3CCCO3)s2)c1 (stereo not drawn),2.6%,u,-14.6%,0.2%,50.6%[activator],-15.0%,-1.2%,-8.1%
COc1ccc(NC(=O)CCC(=O)N/N=C/c2ccc([N+](=O)[O-])s2)cc1,7.8%,u,u,-99.1%,19.5%,-49.1%,-5.9%,-12.8%

# Single records, from the list above. Screens in order: Cruzain noTriton | LASV entry inh | MARV entry inh | SARS PLpro yeast | StopGo reporter | NS1 function inh | Cruzain Triton | RE007 growth inh
# `O=C(Nc1ccc(-c2nc3ccccc3[nH]2)cc1)C1CCCO1` (stereo not drawn) reads 6.0% | u | u | -11.5% | x | 0.0% | -3.3% | u
# `CC(=O)c1c(C)[nH]c(=S)c(C#N)c1-c1ccc(F)cc1` reads x | x | x | -0.2% | -7.9% | -5.1% | x | 30.6%
# `CCCn1c(=N)c(C(=O)NC2CCCCC2)cc2c(=O)n3cc(C)ccc3nc21` reads 11.3% | -6.8%[46.1 µM] | -12.5%[46.1 µM] | x | 1.0% | x | -2.0% | x
# `Cc1cn(-c2cc(C(=O)Nc3ccc(C)c(NC(=O)N4CCNC4=O)c3)cc(C(F)(F)F)c2)cn1` reads x | x | x | -3.4% | -15.2%&3.6% | 6.9% | x | 9.1%&9.9%
# `COc1ccc(S(=O)(=O)N2CCOCC2)cc1NC(=O)C1CC1` reads x | -10.4%[46.1 µM] | -8.2%[46.1 µM] | 6.6% | 0.3% | x | x | 9.4%

# Screens from PubChem BioAssay.
